Bioassay records as filed in PubChem.
AID504770: E. coli YBA685 growth inhibition, screen for V. cholerae RctB inhibitors. E. coli YBA685 rctB-dependent plasmid, OD600 growth, 3 h; stronger effect = lower value. z-score (test concentration not listed). 0.27% of 130,000 active. AID 504770;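 active = z-score under -2 on both plates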;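 note: wells of about 30 µL received 100 nL stock; score is relative to mean and SD of the test wells; the first replicate is given; strong numbers were not always called active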
CapD inh: CapD enzyme inhibition; 0.23% of 140,000 active; z-score (test concentration not listed); purified CapD enzyme, fluorescence intensity read-out; stronger effect = lower value; some hits fall short of the stated cut; AID 492967;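 active = z-score under -4 in either of two replicates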;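 note: stock transfer was 100 nL into about 40 µL; score is relative to mean and spread of the plate; one replicate is shown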
Numbers without * were called inactive; x = not tested or not shown. Not all compounds are listed; rates above refer to the full screens.

Values run as follows: AID504770, CapD inh
- C=CCn1c(SCc2cc3ccc(C)cc3nc2Cl)nnc1-c1ccoc1C
    2.4, x
- Cc1nc(-c2ccccc2)sc1C(=O)NN
    x, 9.1
- CC(=O)OCCS(=O)(=O)c1ccc(C(F)(F)F)cn1
    -0.35, 0.77
- COc1ccccc1N(CCOC(=O)C1CC(=O)N(c2ccccc2)C1)C1=NS(=O)(=O)c2ccccc21 (centres undefined)
    x, 0.23
- COC(F)(C(=O)N1CCOCC1)C(F)(F)F (centres undefined)
    -0.4, -0.16
- COC(=O)/C(C#N)=C/c1cccc(OC)c1
    1.4, 2.2
- CCN(CC)c1cc(C)c2cc(NC(=O)C3CC3)ccc2n1
    -0.1, 16
- CCOC(=O)COc1ccccc1O
    0.4, 0.94
- CSc1sc(-c2ccn(C(=O)Nc3ccccc3)n2)c2c1C(=O)CC(C)(C)C2
    0.55, -0.74
- O=C(c1cc2c(=O)oc3ccccc3c2s1)N(Cc1cccs1)C1CCCC1
    0.2, 0.16
- O=C(CCn1nc(-c2ccccc2)ccc1=O)N1CCOCC1
    1.1, -0.2
- CC(C)(C)OC(=O)N1CCc2nc(N3CCCCC3)ncc2C1
    -0.15, 3.4
- CCc1ccc(NC(=O)c2cc3c(=O)n(C)c4ccccc4c3s2)cc1
    0.35, -0.7
- CC1CN(C(=O)CCC(=O)NCc2ccccc2)c2ccccc2O1 (centres undefined)
    0.05, 0.19
- O=C(c1ccc(-c2cccs2)s1)N1CCN(c2ncccc2C(F)(F)F)CC1
    0.1, 35
- CN(C1CCCCC1)S(=O)(=O)c1ccc(Cl)c(C(=O)NCCc2ccccn2)c1
    0.15, x
- COc1ccc(-n2cccc2/C=C2/C(=N)N3C(c4ccccc4)=CSC3=NC2=O)cc1
    0.85, -0.57
- OC(COC1CCCCC1)CN1CCCCC1 (centres undefined)
    0.05, x
- Cc1ccc(CN(C)C(=O)c2ccccc2OCCOc2ccccc2)o1
    0.7, x
- CCOc1ccc(C2=NN3C(C2)c2cccc(OCC)c2OC3c2cccc(F)c2)cc1 (centres undefined)
    x, -0.87
- CC1CC(C)N(C(=O)CSc2nc3c(c(C(F)(F)F)n2)CCc2ccccc2-3)C(C)C1 (centres undefined)
    1.8, 0.26
- Cc1cc(Cc2c(O)nc(SCc3ccccc3)[nH]c2=O)ccc1OC(C)C
    0.5, -0.69
- O=C(c1ccc2c(c1)OCCO2)N1CCN(c2ccc([N+](=O)[O-])cc2)CC1
    x, -1.7
- N#CC(c1c(Cl)cccc1Cl)N1CCSCC1 (centres undefined)
    -0.6, -0.24
- CCC(C)c1ccccc1NC(=O)C1CCCO1 (centres undefined)
    1.8, 0.04
- Cc1ccc(NC(=O)CN2C(=O)CSC(C)C2=O)cc1 (centres undefined)
    -0.75, 0.05
- Cc1ccc(C(=O)NCC#N)cc1
    0.05, 0.18
- CCn1cc(CN(C)C(=S)Nc2ccc(S(=O)(=O)Nc3ncccn3)cc2)c(C)n1
    0.85, -0.17
- COc1cc(/C=C2/C(C)=C(C#N)c3nc(N)c(C#N)c(C)c32)ccc1OCc1ccc(C(=O)O)cc1
    x, 0.12
- COc1ccc(C(=O)Nc2ccncc2)c(OC)c1
    0, 0.72
- Cc1cc(N(C)C)c(C#N)c(N2CCCCC2)n1
    1.2, 3.6
- CCN(CC)C(=O)Oc1ccccc1
    -0.9, x
- Cc1nc2c(cnn2C(C)C)cc1C(=O)O
    1.8, x
- O=C(CSc1nc2ccccc2[nH]1)c1ccccc1
    -0.8, 0.07
- CC(=O)Nc1c(-c2ccc(F)cc2)nc2ccccn12
    1.4, 99
- Cc1onc(-c2ccccc2)c1NC(=O)Nc1c(Cl)cccc1Cl
    x, 0.42
- Brc1ccc(-c2csc(-c3ccncc3)n2)cc1
    x, 8.3
- CCN(CCc1ccccn1)S(=O)(=O)c1ccc(S(C)(=O)=O)cc1
    x, -1.1
- CNC(=O)NC(=O)CSc1cc(C)c2ccccc2n1
    -2.1, x
- O=C(CSc1ccc(-c2cccs2)nn1)NCCc1ccccc1
    0.2, -0.17
- CSc1nc2n(n1)C(C(C)C)C(C(=O)Nc1ccccc1)=C(C)N2 (centres undefined)
    -0.15, 0.27
- Cc1nonc1C(=O)N/N=C/C(C)C
    -1.6, 0.13
- O=C(NC1CCCC1)C1CCCN(C2=NS(=O)(=O)c3ccccc32)C1 (centres undefined)
    0.2, x
- O=C(CCN1C(=O)c2ccccc2Sc2ncccc21)NCc1ccccc1
    1.8, -0.94
- Cc1ccc(Cl)cc1N1CCN(C(=O)CN2C(=O)COc3ccc(C(C)(C)C)cc32)CC1
    -0.5, 0.28
- COc1ccc(N2CCN(C(=O)C(c3ccccc3)c3ccccc3)CC2)cc1
    -0.35, x
- O=C(NCC1CCCO1)Nc1ccccc1 (centres undefined)
    0.1, x
- CC(C)(C)C(=O)Nc1cc(C(F)(F)F)cc(C(F)(F)F)c1
    -0.55, -0.095
- c1ccc(Cc2nn3cnnc3s2)cc1
    -0.4, 0.17
- CC(=O)N(C)c1nc(N)n(-c2ccccc2)n1
    0.8, 0.53
- CCc1nc2ccccc2n1CCO
    0.6, x
- Cc1cccc(NC2=NC(=S)N(c3cccc(C(F)(F)F)c3)C23CCCCC3)c1
    x, -0.57
- CCC1Nc2ccccc2-c2nnc(SC)nc2O1 (centres undefined)
    -0.25, -0.025
- Cc1ccccc1OCc1nnc(SCC(=O)Nc2sc(C)c(C)c2C#N)n1-c1ccccc1
    -0.65, x
- Cc1cccc(C)c1N=C1SCCS1
    x, -0.65
- COc1ccc(-c2nc3cccc(C)n3c2NCc2ccco2)cc1OC
    0.05, x
- Cc1ccc(Cn2c(C)c3cnn(CC(=O)N4CCCCCC4)c(=O)c3c2C)cc1
    -0.55, 0.4
- O=C(O/N=C1/CCCc2occc21)c1ccccc1
    0.4, 0.5
- COc1ccc(NCc2nc3ccccc3n2CCOc2ccccc2)cc1
    -0.2, 0.05
- Cc1[nH]c2ccccc2c1CCNCC(C)(C)C
    -0.55, 0.49

More results follow:
Values run as follows: AID504770, CapD inh
- COC(=O)c1ccc(NC(=O)COC(=O)c2ccc3c(c2)OCCO3)cc1
    0, x
- Cc1cc(C(=O)CC#N)c(C)n1-c1cccc(C(F)(F)F)c1
    0.45, 0.89
- N#Cc1ccc(OC(C(F)(F)F)C(F)(F)F)cc1C#N
    -0.45, x
- CC(=O)c1c(CSCc2ccccc2)oc2ccc(O)c(CN(C)C)c12
    x, -0.19
- COC(=O)C1C2C=CC3(CN(c4ccccc4OC)C(=O)C13)O2 (centres undefined)
    -0.85, -0.7
- Cc1ccccc1-n1c(N)c(C(=O)Nc2ccc(F)cc2)sc1=S
    x, 0.18
- C=CCNC(=O)c1ccc2c(=O)n(Cc3ccco3)c(=S)[nH]c2c1
    -0.3, 0.38
- CC1CN(CC(=O)Nc2ccc3c(c2)CCC3)CC(C)O1 (centres undefined)
    0.4, x
- c1ccc(CNC2C3CC4CC(C3)CC2C4)nc1 (centres undefined)
    -0.75, x
- CCCCOc1ccc(C2C(N3C(=O)c4c(Cl)c(Cl)c(Cl)c(Cl)c4C3=O)C(=O)N2c2ccc(OC)c(Cl)c2)cc1 (centres undefined)
    x, -0.32
- Cc1[nH]nc(N)c1C#N
    0.2, 2.1
- COC(=O)C1CCN(C(=O)C(C)(C)C)CC1
    0.55, x
- CCN1CCCc2cc(CN(C(=S)Nc3ccc(OC)cc3)C3CCCC3)ccc21
    -0.7, 12
- S=c1nccc(-c2csc(COc3ccccc3Cl)n2)[nH]1
    0.05, 9.3
- N#Cc1cc(-c2nc3ccccc3[nH]2)c(N)n2c1nc1ccccc12
    -0.85, -1.7
- CSc1nc(C)cc(C)c1C#N
    x, -0.015
- CC(=O)Nc1ccc2c(c1)nc1n2CCN(C(C)c2ccccc2)C1 (centres undefined)
    -0.5, 133
- Cc1ccc(OC(=O)c2ccco2)c(-n2nc3ccccc3n2)c1
    -0.25, 5.7
- O=c1cc(-c2ccccc2)nc(Cc2c(Cl)cccc2Cl)[nH]1
    1.8, 9.1
- CS(=O)(=O)N(CC(=O)Nc1ccc2c(c1)OCCO2)c1ccccc1
    -0.2, x
- CC(C)NCc1c(O)c(Br)cc2oc3c(c12)CCCC3
    -0.35, -0.13
- CCN(CCNS(=O)(=O)c1cc(Cl)cc(Cl)c1)c1cccc(C)c1
    x, -0.78
- CCOC(=O)C(C)n1nc(C)c2sc3ccccc3c2c1=O (centres undefined)
    1.5, -0.23
- CC(C)N1CC=C2C(C1)C(c1ccccc1Cl)C(C#N)=C(N)C2(C#N)C#N (centres undefined)
    -0.7, x
- Nc1ccc2c(c1)ncn2CCc1ccccc1
    0.05, 4.3
- CCN(C(=O)c1ccnc(C(C)(C)C)c1)c1ccccc1
    0.7, 0.06
- N#CC1(C#N)[C@H](c2cccnc2)[C@@H](C(=O)c2ccccc2)N2C=Cc3ccccc3[C@@H]21
    x, 6.1
- O=C(O)c1cccc2c1NC(c1cccc3ccccc13)C1CC=CC21 (centres undefined)
    x, 4.1
- CC(C)NC(=O)c1ccc(Cl)cc1Cl
    0.55, x
- CCCn1c(=O)n(Cc2ccc(Br)cc2)c2ccccc21
    -0.35, x
- Cc1cc2occ(CC(=O)OCc3ccc(C#N)cc3)c2cc1C
    0.45, x
- O=C(O)CCC1(CCC(=O)O)C(=O)c2cccc3cccc1c23
    -0.45, 5.4
- O=C1NCCCC1C(=O)NCC(O)CO (centres undefined)
    -1.1, 0.23
- COc1ccc(S(=O)(=O)n2c(SCC(=O)NCCc3ccccc3)nc3ccccc32)cc1
    x, -0.53
- O=C1Nc2ccccc2C1(O)Cc1ccccn1 (centres undefined)
    x, 0.64
- Cc1cccc(OC(C)C(=O)OCC(=O)c2cc3ccccc3o2)c1 (centres undefined)
    0.15, x
- CN1CCN(c2nc3ccccn3c(=O)c2/C=C2\SC(=S)N(Cc3ccco3)C2=O)CC1
    x, -0.29
- CC(C)c1cc(NC(=O)CSc2nc3ccc(Cl)cc3[nH]2)on1
    0.2, x
- O=C1NC(Cc2c[nH]c3ccccc23)C(=O)N1CCN1C(=O)c2ccccc2C1=O (centres undefined)
    -0.4, x
- COc1cccc2c1OC(c1ccc(SC)cc1)N1N=C(c3cccnc3)CC21 (centres undefined)
    x, -0.09

Reformatted bar-delimited: part of the list above
SMILES | AID504770 | CapD inh
Cc1nc(-c2ccccc2)sc1C(=O)NN | x | 9.1
CC(=O)OCCS(=O)(=O)c1ccc(C(F)(F)F)cn1 | -0.35 | 0.77

Returning to the listing, repeating the seven entries before the break.
Values run as follows: AID504770, CapD inh
- COc1ccc(S(=O)(=O)n2c(SCC(=O)NCCc3ccccc3)nc3ccccc32)cc1
    x, -0.53
- O=C1Nc2ccccc2C1(O)Cc1ccccn1 (centres undefined)
    x, 0.64
- Cc1cccc(OC(C)C(=O)OCC(=O)c2cc3ccccc3o2)c1 (centres undefined)
    0.15, x
- CN1CCN(c2nc3ccccn3c(=O)c2/C=C2\SC(=S)N(Cc3ccco3)C2=O)CC1
    x, -0.29
- CC(C)c1cc(NC(=O)CSc2nc3ccc(Cl)cc3[nH]2)on1
    0.2, x
- O=C1NC(Cc2c[nH]c3ccccc23)C(=O)N1CCN1C(=O)c2ccccc2C1=O (centres undefined)
    -0.4, x
- COc1cccc2c1OC(c1ccc(SC)cc1)N1N=C(c3cccnc3)CC21 (centres undefined)
    x, -0.09
- COc1ccc(-c2cnn(-c3ccc(NC(=O)C(C)(C)C)cc3)c2)cc1
    x, 1.9
- O=C(COc1cc2oc(=O)c3c(c2cc1Cl)CCC3)NCc1ccco1
    2.3, x
- CC(C)CN1CCOC(CN)C1 (centres undefined)
    0.1, x
- O=[N+]([O-])/C=C/c1c(-c2ccc3ccccc3c2)[nH]c2ccccc12
    x, 11
- CC1CC(Nc2ccccc2)c2ccccc2N1C(=O)c1ccccc1[N+](=O)[O-] (centres undefined)
    x, -0.46
- NC(=O)C1CCN(C(=O)c2ccc(Cn3c(=S)[nH]c4ccc(Br)cc4c3=O)cc2)CC1
    x, -0.14
- O=C1c2cc(S(=O)(=O)NC3CCCCC3)cc([N+](=O)[O-])c2-c2c1cc(S(=O)(=O)NC1CCCCC1)cc2[N+](=O)[O-]
    x, 0.18
- CC(=O)N(C)Cc1nc2ccccc2n1CCOc1cccc(C)c1C
    -0.7, 0.26
- O=C(CCN1N=C(c2ccccc2)CCC1=O)Nc1cccc(C(F)(F)F)c1
    2.8, -0.94
- O=c1ccccn1CCOc1ccc(Cl)cc1Cl
    -0.05, x
- CC1(C)CC(=O)C2=C(C1)c1c(ccc3ncccc13)NC2c1ccc(O)c(O)c1 (centres undefined)
    x, 1.1
- CCN1CCN(C(=O)Nc2ccc(OC)cc2)CC1
    -0.45, -0.04
- S=c1[nH]nc(C2CCCCC2)n1N=Cc1cccnc1
    1.8, -0.56
- Cc1nc(-c2c[nH]c3ccccc23)c(C)s1
    -1.1, -0.36
- O=S(=O)(c1cccc(Cl)c1Cl)N1CCOCC1
    0.95, 0.12
- CC12CC(=O)C3C(CCC4=CC(=O)CCC43C)C1CCC2=O (centres undefined)
    x, -0.055
- Cn1c(=O)c2c(-c3ccc(Br)cc3)n(CCO)cc2n(C)c1=O
    -0.45, 14
- CCN(CC)c1nn2c(=O)c(C(=O)N3CCC4(CC3)OCCO4)cnc2s1
    -0.45, 103
- COc1cccc(OC)c1CN(C)C(=O)c1cnc(OC(C)C)cc1C(F)(F)F
    0.75, 0.16
- N#Cc1ccc(NC(=S)NCCN2CCOCC2)cc1
    -0.6, -0.26
- Clc1ccc(Sc2ccc(-c3ccccn3)s2)cc1
    1.7, 49
- CCOC(=O)c1ccc(NC(=O)C2=CSCCO2)cc1
    1.1, 0.29
- CCC(C(=O)NC1CCCC1)N(C(=O)c1snc(C(N)=O)c1N)c1ccccc1 (centres undefined)
    -0.95, x
